# Prx2 Sm inh: Schistosoma mansoni Prx2 inhibition; Potency, µM; S. mansoni Prx2 activity coupled to TGR/GSH (TGR is thioredoxin glutathione reductase), NADPH fluorescence loss, qHTS; some inactives read as strong as hits; hit rate 0.07% among 65,000; AID 448; active means full or partial inhibition curve with a strong effect at the top dose; inconclusive means weaker partial or single-point curve; inactive means no accepted curve; also: series up to 57 µM; many of its hits are not listed in these tables
#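 Prx2 activity was followed as the loss of NADPH fluorescence (ex 365/em 450 nm), read every 30 sec for 8 min after H2O2 start. The enzyme mix (50 nM Prx2, 25 nM TGR, GSH, NADPH; pH 7.4 phosphate buffer) was incubated with compound for 15 min at room temperature first.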
# Anthrax LT inh: blocks cellular internalization of anthrax lethal toxin; AID 912; Cells, anthrax lethal toxin internalization, FRET ratio (460/530); hit rate 0.67% among 70,000; Potency, µM (titrated, usually from 40 µM), without a hit: top-dose activity change, negative = inhibition, most hits filed as inhibitors; active = well fitted falling ratio curve with the 530 nm signal flat; inconclusive = other ratio curves, or a change in one channel alone; inactive = flat curves in the ratio and both channels; the % refers to the ratio; also: % is scaled to controls: 0 for no effect and ±100 for the full control effect; nearly all actives have a fitted effect of over 50% in size; tested in ME-180 cells; beta-lactamase reporter
# An asterisk follows results filed as active; u = inconclusive; x = no result given; [ ] = remark or other dose. Potency is read from the fitted curve at half-maximal effect.
SMILES,Prx2 Sm inh,Anthrax LT inh
CCOC(=O)Cn1c2c(c(-c3ccccc3OC)cc1=O)CCCC2,u,-4.2%
CCOC(=O)C1CCN(C(=O)CN(c2ccc(OC)cc2)S(=O)(=O)c2c(C)noc2C)CC1,>57,1.5%
O=C(Nc1ccc(F)c(Cl)c1)c1ccc2c(=O)n3c(nc2c1)CCCCC3,>57,-12.8%
CCCCCc1nc2c(=O)n(C)c3ccccc3c2o1,>57,4.8%
O=S(=O)(NCC(c1cccnc1)N1CCOCC1)c1cccs1 (configuration not stated),>57,-11.6%
O=C(O)CCn1c(-c2ccccc2)cc2c1CCCC2=O,>57,-7.1%
CCOC(=O)N1CCC(NC(=O)C(Cc2ccccc2)NC(=O)c2ccco2)CC1 (configuration not stated),>57,1.5%
CCOCCCNC(=O)c1c(C)c(C(=O)OCC)n(C)c1C,>57,2.1%
CCc1ccc(NS(=O)(=O)c2ccc3[nH]cc(C(=O)NCC4CCCO4)c(=O)c3c2)cc1 (configuration not stated),>57,6.7%
CCC(=O)c1ccc(OCC(O)Cn2c(C)nc3ccccc32)cc1 (configuration not stated),>57,17.1%
Cc1ccc(S(=O)(=O)N2CCCC(C(=O)NCCc3ccc4c(c3)OCO4)C2)cc1 (configuration not stated),>57,u
C=C1CC[C@H](O)C/C1=C/C=C1\CCC[C@]2(C)[C@@H]([C@H](C)CCCC(C)C)CC[C@@H]12,x,-5.7%
O=C(NCC1CCCO1)C(C(=O)c1ccc(F)cc1)n1ccccc1=O (configuration not stated),>57,-11.7%
O=C(CCn1nnc2ccccc21)Nc1nnc(Cc2ccc(F)cc2)s1,>57,5.7%
COCCCNC(=O)c1ccc2c(=O)n(C3CCCC3)c(=S)[nH]c2c1,>57,-8.7%
Cc1noc(C)c1COc1cccc(C(=O)OCC(=O)N2CC(=O)Nc3ccccc32)c1,>57,u
O=C(O)c1c2c(c(O)c3c1CN(C1CCCCC1)CO3)OCN(C1CCCCC1)C2,>57,-4.5%[8 µM]
Cc1ccccc1N1C(=O)c2sc3nc4c(c(=O)n3c2C1=O)CCC4,x,12.6µM*
O=C(CCC1COc2ccccc2O1)NCc1ccco1 (configuration not stated),>57,3.5%
CCCOC(=O)c1ccc(OCC(O)CN2C(=O)NC(C)(C)C2=O)cc1 (configuration not stated),>57,-7.9%
COc1ccc(S(=O)(=O)N2CCCC(C(=O)NCCC3=CCCCC3)C2)cc1 (configuration not stated),>57,2.9%
CCCCn1c(O)c(C(C)=NCCc2ccccc2)c(=O)[nH]c1=O,>57,x
O=C(Cn1nnc(-c2ccccc2F)n1)Nc1ccc(S(=O)(=O)NC2CCCC2)cc1,>57,-15.7%
COc1ccc(-c2nc(CNS(=O)(=O)c3cc(OC)ccc3OC)cs2)cc1,>57,-22.0%

# Continued (2 carried over from the part before).
SMILES,Prx2 Sm inh,Anthrax LT inh
O=C(Cn1nnc(-c2ccccc2F)n1)Nc1ccc(S(=O)(=O)NC2CCCC2)cc1,>57,-15.7%
COc1ccc(-c2nc(CNS(=O)(=O)c3cc(OC)ccc3OC)cs2)cc1,>57,-22.0%
COc1ccc(CCC(=O)N2CCc3ccccc32)cc1,>57,-9.4%
O=C(O)CSc1cccc2cccc(C(=O)O)c12,>57,0.3%
Cc1nc(SCC(=O)Nc2cc(C)on2)c2c(C)c(C)sc2n1,>57,1.2%
COc1ccc(N2C(=O)CCC(C(=O)N3CCCCC3)C2c2ccc(F)cc2)cc1 (configuration not stated),>57,11.8%
C=CCn1c(=N)n(CC(=O)OC)c2ccccc21,>57,8.8%
COc1ccccc1CNC(=O)Cn1nnc(-c2ccncc2)n1,>57,1.3%
CCN1C(=O)c2ccc(C(=O)Nc3nccs3)cc2C1=O,>57,-1.0%
COC(=O)N1CCC2(CC1)CN(c1cccc(-c3ccccc3)c1)C2,>57,2.9%
CCC(O)c1cc2c(cc1NC(=O)c1ccc(C)cc1)OCCO2 (configuration not stated),>57,-3.7%
O=C(CN(C(=O)CNC(=O)c1ccco1)c1ccc2c(c1)OCO2)NC1CCCCC1,>57,u
O=C(Cc1cccs1)Nc1ccc(S(=O)(=O)Nc2ncccn2)cc1,>57,-0.5%
O=C(Nc1nccs1)C(NS(=O)(=O)c1ccc(Br)s1)c1ccccc1 (configuration not stated),>57,2.7%

# Reprinted at random: 6 entries already listed
SMILES,Prx2 Sm inh,Anthrax LT inh
CCC(O)c1cc2c(cc1NC(=O)c1ccc(C)cc1)OCCO2 (configuration not stated),>57,-3.7%
CCN1C(=O)c2ccc(C(=O)Nc3nccs3)cc2C1=O,>57,-1.0%
COc1ccccc1CNC(=O)Cn1nnc(-c2ccncc2)n1,>57,1.3%
O=C(Nc1nccs1)C(NS(=O)(=O)c1ccc(Br)s1)c1ccccc1 (configuration not stated),>57,2.7%
O=C(O)CSc1cccc2cccc(C(=O)O)c12,>57,0.3%
C=CCn1c(=N)n(CC(=O)OC)c2ccccc21,>57,8.8%

# Going on with the list.
SMILES,Prx2 Sm inh,Anthrax LT inh
Nc1ccc(Sc2ccc(N)cc2)cc1,x,2.1%
C=CCn1c(Cc2cccs2)nnc1SCC(=O)Nc1ccc(OC)cc1,>57,4.2%
COc1ccc(O[C@H]2C=C[C@@H](c3ccccc3)O[C@H]2CO/N=C(/C)CCC(=O)OC[C@@H]2O[C@H](c3ccccc3)C=C[C@@H]2Oc2ccc(OC)cc2)cc1,x,8.5%[0.32 µM]
Cc1ccc(N2CC(C(=O)NCCCn3ccnc3)CC2=O)cc1 (configuration not stated),>57,-4.6%
NC(=O)CSc1nc2scc(-c3ccco3)c2c(=O)n1-c1ccccc1,>57,-3.1%
Cn1nnnc1SCC(=O)NCCCc1ccccc1,>57,-2.4%
CCCCCn1c2nc3ccccc3nc2c2c(=O)n(CC3CCCO3)c(C)nc21 (configuration not stated),>57,2.2%
NS(=O)(=O)c1ccc(CCNc2nc(CN3CCOCC3)nc3sc4c(c23)CCC4)cc1,>57,u
CCCN(C(=O)CSc1nnc(-c2ccoc2C)n1N)C1CCS(=O)(=O)C1 (configuration not stated),>57,3.6%
COCCNC(=O)c1cc2c(=O)n(C)c3ccccc3c2n1C,>57,-8.4%
Nc1nc(Nc2ccc(Cl)cc2Cl)nc(C(F)(F)F)n1,>57,-14.2%
Cc1onc(-c2ccccc2)c1C(=O)N1CCCSC1=Nc1ccccc1,>57,-4.5%
c1csc(Cn2nnnc2CN2CCN(c3nc4ccccc4s3)CC2)c1,>57,u
COCCNC(=O)C(c1ccc(C)o1)N(C(=O)c1snc(C(N)=O)c1N)c1cccc(C)c1 (configuration not stated),>57,26.5%
Cc1ccccc1-n1c(O)c(C=Nc2ccc(N(C)C)cc2)c(=O)[nH]c1=O,x,-12.2%
CC(=O)NCc1ccc(-c2csc(N)n2)s1,>57,10µM*
C=CCn1c(CSc2nc3ccccc3s2)nnc1SCC(=O)NCCN1CCOCC1,x,-3.3%
O=C(O)CN1C(=O)CNC1=O,>57,-4.4%
COC(=O)[C@@]1(Cc2ccc(OC)cc2)[C@H]2c3cc(C(=O)N(C)C)n(C[C@H](O)CO)c3C[C@H]2CN1C(=O)c1ccccc1,>57,u
COCC(=O)N1CCC2(CCCN(Cc3ccc(C#N)cc3)C2)CC1,>57,u
O=c1c(-c2ccccc2)nc2cnc(N3CCOCC3)nc2n1Cc1cccs1,>57,u
Cn1c([N+](=O)[O-])cnc1CN1CCN(CCO)CC1,>57,1.2%[8 µM]
COc1ccc(CN2CCN(c3ncccn3)CC2)c(OC)c1,>57,-20.7%
Cc1ccc(-c2cn3c(=S)[nH]nc3s2)cc1,>57,-21.8%
c1ccc(OCc2nnc3sc(C4COc5ccccc5O4)nn23)cc1 (configuration not stated),>57,-7.5%
COc1ccc(-c2nc(SC)n(S(=O)(=O)c3ccccc3)n2)cc1,>57,10.8%
CCn1cc(C(=O)Nc2nncs2)c(=O)c2cc(F)c(N3CCN(C(=O)c4ccco4)CC3)cc21,>57,-10.6%
O=C1CC(c2cccs2)c2cc3c(cc2N1)OCCO3 (configuration not stated),>57,21.2%
CN(C)c1oc(COc2ccc(F)cc2)nc1C#N,>57,-17.3%
CCOCCCNC(=O)c1ccc2c(c1)N(Cc1ccccc1)C(=O)CS2=O (configuration not stated),>57,9.2%
CCCCn1c(=O)[nH]c(=O)c2c1nc(CN1C(=O)c3ccccc3S1(=O)=O)n2CCC,>57,9.1%
CC(C)CCn1c(SCC(=O)c2ccccc2)nc2c1c(=O)[nH]c(=O)n2C,>57,3.3%
Cc1ccc(C(=O)CC2(O)C(=O)N(CCc3ccccc3)c3ccc(Br)cc32)o1 (configuration not stated),>57,-2.1%
CCN1CCN(CCCOc2ccc(-c3ccccc3)cc2)CC1,>57,u
Cc1ccc2cc3c(N)c(C(=O)N4CCOCC4)sc3nc2c1,>57,-0.1%
O=C(Nc1ccccc1)N1CCCC2(CCN(C(=O)c3cc(C(F)(F)F)cc(C(F)(F)F)c3)CC2)C1,x,u
COCCn1c(=S)[nH]c2cc(C(=O)N3CCN(Cc4ccc5c(c4)OCO5)CC3)ccc2c1=O,>57,-1.8%
CC(=O)c1cc(C)ccc1OC(=O)c1cccnc1,>57,-7.2%
C=CCn1c(=O)[nH]c2cc(C(=O)N3CCN(c4ccc(C(C)=O)cc4)CC3)ccc2c1=O,>57,u
Cc1ccccc1-c1nc(N2CCOCC2)c2ccccc2n1,>57,2.9%
CNC(=O)C1(CC(C)C)C=CCN1C(=O)c1ccccc1 (configuration not stated),x,-15.3%
O=C(CSc1oc(-c2ccco2)nc1S(=O)(=O)c1ccc(F)cc1)NCC1CCCO1 (configuration not stated),>57,u
O=C(CCN1CCN(c2ccccc2F)CC1)Nc1ccc2c(c1)OCO2,>57,0.9%
COc1ccc(-c2cnc(SCC(=O)Nc3ccc4c(c3)OCO4)n2Cc2ccco2)cc1,>57,u
CC(c1ccccc1)N1C(=O)CC(Sc2ncccc2C(=O)O)C1=O (configuration not stated),>57,9.4%
O=C(N/N=C1/C[C@@H](O)[C@@H](O)[C@@H]2[C@@H]3C(=O)N(C[C@@H]4CCCO4)C(=O)[C@H]3CC[C@H]12)OCc1ccccc1,x,9.1%[8 µM]
Cn1c(=O)oc2cc(S(=O)(=O)N3CCCC(C(=O)NCCN4CCOCC4)C3)ccc21 (configuration not stated),>57,2.3%
c1cncc(-c2nc(NCc3cccs3)c3ccccc3n2)c1,>57,u
O/N=C1/CCSc2ccccc21,>57,-7.4%
COC(=O)N1CCC2(CCN(Cc3ccccc3)CC2)CC1,>57,-5.1%
NC(N)=Nc1nc2ccc([N+](=O)[O-])cc2[nH]1,>57,-2.5%[8 µM]
CN(C)C(=O)c1ccc(-c2cncnc2NCc2ccccc2)cc1,>11.4,-7.1%
O=C(CSc1nnc(-c2ccco2)o1)NC1CCCCCC1,>57,-23.9%
COC(=O)c1ccc(C(=O)OC)c(NC(=O)c2oc(C)nc2C)c1,>57,-2.6%
c1ccc(-c2nnc(-c3ccccn3)nn2)nc1,>57,-1.1%
COc1cc2c(cc1OC)-c1cc3nc4ccccc4nc3n1C(C)(C)C2,>57,u
Cc1cc2c(=O)n(Cc3ccco3)c(SCC(=O)NCc3ccco3)nc2s1,>57,x
CC1Cc2ccccc2N1C(=O)C1CCCN(S(=O)(=O)c2cccc3cccnc23)C1 (configuration not stated),>57,u
CN(C)c1ncc2ncc(=O)n(C[C@H]3CCCO3)c2n1,>57,-10.5%
COc1cc2c(cc1OC)C(c1ccccc1O)N(C1CC(=O)N(c3ccccc3)C1=O)CC2 (configuration not stated),x,-18.2%
# (more compounds)
SMILES,Prx2 Sm inh,Anthrax LT inh
COC(=O)N1CCC2(CCCN(C(c3ccccc3)c3ccccc3)C2)CC1,>57,u
CC(=O)N1CCCc2cc(S(=O)(=O)N(C)Cc3ccccc3)ccc21,>57,-6.3%
COc1cccc(/C=N/n2c(CO)nc3ccccc32)c1OC,>57,-7.5%
CCc1c(C(=O)Nc2ccc(OC)cc2)[nH]c(C)c1C(C)=O,>57,8.4%
O=C(NCCN1CCOCC1)c1cc(=O)[nH]c2ccc(Br)cc12,>57,-2.3%
CC1(C)NC(=O)N(CNc2cc(Cl)ccc2Cl)C1=O,>57,-5.9%
O=C(O)c1ccccc1,x,u
COc1ccc(CCNS(=O)(=O)c2cccc3nsnc23)cc1OC,>57,u
COc1ccc(CNc2ccnc(-c3ccc(N(C)C)cc3)n2)c(OC)c1,>57,-19.2%
CCOC(=O)c1ccccc1NC(=O)c1c(O)c2ccccc2n(CC)c1=O,>57,-15.1%
O=C(NCCN1CCCCCC1)C1CCN(S(=O)(=O)N2CCOCC2)CC1,>57,-9.7%
CN1CCN(c2cc(-c3ccccc3Cl)ncn2)CC1,>57,-2.5%
O=C(OCc1ccccc1Cl)c1ccc(-n2cnnc2)cc1,>57,6.0%
C=CCNC(=O)c1c(N)n(-c2ccc3c(c2)OCO3)c2nc3ccccc3nc12,>57,x
CC(C)CN(C)c1nc(N)c(C(=O)N=C(N)N)nc1Cl,>57,8.9%
O=c1c2[nH]c3ccccc3c2ncn1Cc1ccccn1,>57,-1.2%

# A draw from above in order of formula weight, ascending:
SMILES,Prx2 Sm inh,Anthrax LT inh
CCCN(C(=O)CSc1nnc(-c2ccoc2C)n1N)C1CCS(=O)(=O)C1 (configuration not stated),>57,3.6%
COc1ccc(-c2cnc(SCC(=O)Nc3ccc4c(c3)OCO4)n2Cc2ccco2)cc1,>57,u
NS(=O)(=O)c1ccc(CCNc2nc(CN3CCOCC3)nc3sc4c(c23)CCC4)cc1,>57,u

# Screening results: PubChem, National Center for Advancing Translational Sciences (NCATS)

# An excerpt; the hit share may differ from the screen's.
